Sfp PPTase inh: inhibitors of Bacillus subtilis Sfp phosphopantetheinyl transferase; Q9F4F7; Biochemical Sfp PPTase activity, qHTS; Potency, µM, for the others: max response, negative = inhibition, usual class: inhibitors; 310,000 tested, 3.5% active; AID 1490; active means well fitted inhibition curve with a large enough effect; inconclusive means small, poorly fitted or top-dose-only effect, or another doubt; inactive means no such curve, though single readings can be large or run the other way;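 further: the enzyme is Sfp with the accession as filed and its product quenches rhodamine fluorescence; potency means the concentration at half of the fitted maximal effect; 0% = enzyme reaction without inhibitor and -100% = no enzyme wells; top concentration of the series not given in the record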
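Buffer: 50 mM Hepes-Na pH 7.6, 10 mM MgCl2, 0.01% Nonidet P-40, 0.01% BSA. Enzyme 15 nM, pre-exposed to compound 15 min; substrates then added and fluorescence change tracked over 30 min.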
TRPV1 potentiator: human TRPV1 potentiation. potentiation, % at 8.33 µM. TRPV1-expressing cells, Fluo-8 calcium influx, capsaicin EC20 potentiation; host cell line not named in the record; control for the full effect not named in the record. AID 540277. 320,000 tested, 0.02% active. Q8NER1; active means potentiation above 80%; inconclusive means 30% to 80%; inactive means below 30%; further: 0% is about no effect
Target sequence (Q8NER1 whole entry, looked up): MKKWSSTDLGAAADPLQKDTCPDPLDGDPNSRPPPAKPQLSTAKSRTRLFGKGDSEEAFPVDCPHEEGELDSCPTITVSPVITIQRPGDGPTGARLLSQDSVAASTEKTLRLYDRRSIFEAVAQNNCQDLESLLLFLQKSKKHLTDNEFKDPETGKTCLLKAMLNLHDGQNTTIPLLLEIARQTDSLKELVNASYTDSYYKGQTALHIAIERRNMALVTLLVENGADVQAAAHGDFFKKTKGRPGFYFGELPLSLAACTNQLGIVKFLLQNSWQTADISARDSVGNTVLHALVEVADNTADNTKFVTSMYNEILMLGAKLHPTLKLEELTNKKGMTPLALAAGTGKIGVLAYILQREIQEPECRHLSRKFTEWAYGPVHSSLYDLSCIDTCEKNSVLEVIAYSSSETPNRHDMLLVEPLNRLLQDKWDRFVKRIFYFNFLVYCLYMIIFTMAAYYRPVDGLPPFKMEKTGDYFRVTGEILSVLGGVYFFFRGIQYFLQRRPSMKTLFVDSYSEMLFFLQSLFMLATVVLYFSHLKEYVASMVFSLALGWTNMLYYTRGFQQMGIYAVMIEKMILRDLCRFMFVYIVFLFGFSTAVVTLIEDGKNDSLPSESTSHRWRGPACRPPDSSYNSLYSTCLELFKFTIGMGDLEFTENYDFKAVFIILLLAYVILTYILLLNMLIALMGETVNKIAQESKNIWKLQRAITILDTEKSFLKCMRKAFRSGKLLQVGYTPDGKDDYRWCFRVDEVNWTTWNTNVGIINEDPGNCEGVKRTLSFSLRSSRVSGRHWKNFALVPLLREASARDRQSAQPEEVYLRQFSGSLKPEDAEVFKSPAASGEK
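TRPV1-expressing cells were cultured overnight at 35.5C and loaded with Fluo-8 calcium dye for 40 to 90 min at room temperature. After a 10 s baseline, compound was added and calcium influx was read kinetically for 3 min (ex 480/em 520 nm).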
ClpP mod: qHTS Assay for Activators of ClpP. purified B. subtilis ClpP, FRET peptide cleavage, 20 min. Potency, µM (series often up to 57.5 µM), for the others: top-dose activity change, negative = active. 340,000 tested, 1.9% active. AID 651965, 2013; active = well fitted falling curve with a large enough effect; inconclusive = small, poorly fitted or top-dose-only effect; inactive = no such curve, though single readings can be large or run the other way; further: potency means the concentration at half of the fitted maximal effect; the source files actives as falling curves though it sought activators and does not explain the sign; nearly all actives have a fitted effect of over 65% in size; many hits overshoot -100%
Target sequence (P80244 whole entry, looked up): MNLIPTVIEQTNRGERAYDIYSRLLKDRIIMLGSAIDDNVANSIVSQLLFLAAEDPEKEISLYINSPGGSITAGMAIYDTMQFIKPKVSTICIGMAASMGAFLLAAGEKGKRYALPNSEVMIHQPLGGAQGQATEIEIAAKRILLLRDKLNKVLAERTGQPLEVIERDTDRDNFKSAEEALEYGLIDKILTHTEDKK
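FRET quenching reversal measured ClpP activation: 10 microg/mL B. subtilis ClpP at pH 8 with the FRET-FV decapeptide, read at 430 nm after 320 nm excitation. The 20-min minus 0-min signal was scaled between DMSO/no-enzyme wells and ADEP (5.8 microM final).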
gsp antagonist: gsp mutant antagonism; gsp-mutant cells, cAMP HTRF, 30 min; control for the full effect not named in the record; Potency, µM (doses to about 76.9 µM), inactives show at the highest dose activity change, negative = inhibition, usual class: inhibitors; 340,000 tested, 0.4% active; AID 624288; active = falling curve of any shape with a large fitted effect; inconclusive = falling curve, mostly with a smaller effect; inactive = flat or rising curve; cell line not stated here;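 further: intracellular cAMP measured with PDE inhibitor Ro 20-1724 present during compound exposure; potency means the concentration at half of the fitted maximal effect; on the % scale 0 is the no-effect control and ±100 the full control effect; nearly all actives have a fitted effect of over 65% in size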
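HTRF cAMP measurement after 30 min RT detection following 30 min, 37C compound treatment alongside […] (added as 300 uM solution) in G418-selected cells seeded at 2000/well and grown 16–24 h.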
Menin-MLL FL inh: displaces fluorescein MLL peptide from human menin | Fluorescence polarization, fluorescein-MLL peptide displacement from menin | FP activity change, % at 61.4 µM | 290,000 tested, under 10 active | AID 1766; inconclusive = falling polarisation curve, or a change in total fluorescence; inactive = total fluorescence flat and polarisation flat or rising; no compound was filed as active; the % refers to the polarisation; negative = inhibition;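 further: % of control where 0% means no effect; inhibitors lower the polarisation; unlabelled MLL peptide was the positive control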
D2 potentiator: potentiates the human D2 dopamine receptor allosterically. P14416. DiscoveRx D2 beta-arrestin cells, luminescence, 90 min; 100% = 57 uM dopamine signal. potentiation, % (concentration not given with the values). 360,000 tested, 0.23% active; active = potentiation of 50% or more; inconclusive = 30% to 50%; inactive = 30% or less;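 further: compound concentration not given in the record; tested on top of an EC20 dose of dopamine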
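PathHunter beta-arrestin assay in DiscoveRx D2 cells. Compounds were added with an EC20 of dopamine (50 nM final) for 90 min at 37 deg C. Luminescence was read 1 h after detection reagent, with 57 uM dopamine as the EC100 control.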
gsp agonist: gsp mutant agonism; AID 624287; Potency, µM (doses to about 76.9 µM), for the others: at the top dose activation (cAMP increase), most hits filed as activators; 340,000 tested, 0.13% active; gsp mutant cells, cAMP HTRF, 30 min; control for the full effect not named in the record; active = well fitted activation curve with a large enough effect; inconclusive = small, poorly fitted or top-dose-only effect, or another doubt; inactive = no such curve, though single readings can be large or run the other way; cell line not stated here;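 further: phosphodiesterase inhibitor Ro 20-1724 added with compounds to block cAMP breakdown; potency means the concentration at half of the fitted maximal effect; nearly all actives have a fitted effect of over 60% in size; about a fifth of the inactives were tested at one dose only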
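Cells in DMEM/10% FBS with G418 were pretreated with compounds in DMSO plus […] (300 uM stock) for 30 min at 37C. cAMP was measured by HTRF (cAMP-d2 plus anti-cAMP antibody-K) after 30 min at room temperature.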
Numbers without * were called inactive; ? = inconclusive; nt = no result given; [ ] = dose if it differs, or a comment.

SMILES	Sfp PPTase inh	TRPV1 potentiator	ClpP mod	gsp antagonist	Menin-MLL FL inh	D2 potentiator	gsp agonist
O=C(Cc1ccccc1)Nc1ccc(F)cc1	17%	7	nt	2%	-1.1	-3	0%
CSc1cccc(NS(=O)(=O)c2cccc3nsnc23)c1	0%	16	0.3%	-11%	2.5	-14	2%
CC(=O)Nc1ccc(NC(=O)COc2ccc(-c3ccc(C#N)cc3)cc2)cc1	nt	5	?	13%	nt	17	?
Cc1nc(Nc2ccc(S(N)(=O)=O)cc2)sc1-c1ccccc1	-2%	-3	nt	-15%	-1.5	-4	22%
O=[N+]([O-])c1ccc(COc2ccccc2CN2CCOCC2)cc1	nt	nt	0.7%	6%	nt	-13	nt
CNC(C)C(=O)NC(C(=O)N1CCCC1C(=O)Nc1ccc2ncccc2c1)C(C)C (stereo unspecified)	nt	-1	?	-5%	nt	-6	nt
COc1ccc(/C=N/n2nnnc2N)cc1OC	10%	-4	-1.7%	12%	-2.1	-5	-17%[15.4 µM]
Cc1ccc(OCc2cccc(S(=O)(=O)N(C)C)c2)c([N+](=O)[O-])n1	11%	-10	nt	10%	nt	-7	-4%[15.4 µM]
CN(CC(=O)Nc1ccccc1N1CCOCC1)S(=O)(=O)c1ccc(F)cc1	11%	-4	1.2%	-23%	6.1	-10	4%
Cc1ccc(-c2nnc(SCC(=O)NC3CC3)o2)cc1	10%	-17	nt	7%	nt	-3	17%
COC(=O)c1ccccc1CC1SC(N)=NC1=O (stereo unspecified)	2%	6	nt	11%	1.5	-1	-4%[15.4 µM]
CC(C)CC(=O)NC(=S)Nc1ccc(Cl)cn1	?	?	-0.3%	-11%	1.0	-20	5%
O=C(NCC1CCCO1)C1CCN(CC2CCCCC2)CC1 (stereo unspecified)	8%	4	-1.4%	3%	-0.9	-28	-24%
O=C(c1n[nH]c(=O)c2ccccc12)N1CCN(c2ccccc2Cl)CC1	7%	12	-2.8%	-28%	3.6	-10	-12%
CC1C(=O)N2CCCc3cc(S(=O)(=O)N4CCCCC4)cc1c32 (stereo unspecified)	nt	-5	6.9%	5%	nt	23	-4%[15.4 µM]
C[C@H](CO)N1C[C@H](C)[C@@H](CN(C)C(=O)Nc2ccccc2)Oc2ccc(NC(=O)Nc3ccccc3)cc2C1=O	nt	nt	-0.7%	-5%	nt	5	nt
CCOC(=O)Cc1cc(=O)n2[nH]c(-c3ccc(Cl)cc3)cc2n1	10%	7	-2.7%	-6%	3.6	-14	-2%
COc1cc(C(C)=O)ccc1OCC(=O)Nc1ccccc1N1CCCC1	2%	-23	-1.9%	-7%	nt	-7	0%[15.4 µM]
Cc1ccc(N(CC(=O)NCC2CCCO2)C(=O)Cn2nnc(-c3cccs3)n2)cc1 (stereo unspecified)	13%	12	nt	-10%	4.6	-9	-19%[15.4 µM]
O=C1CSC(=S)N1Nc1ccccc1	nt	nt	nt	0%	nt	-6	26%
CC(C)C(C)NC(=O)CN1C(=O)NC(c2ccccc2)(c2ccccc2)C1=O (stereo unspecified)	2%	6	nt	4%	-4.3	-8	-13%
Cc1cc(C)cc(N(CC(=O)NCC2CCCO2)C(=O)CCC(=O)Nc2cc(C)on2)c1 (stereo unspecified)	14%	-3	-2.4%	1%	2.4	-9	?
CN1C(=O)/C(=C/c2coc3ccc(O)cc3c2=O)SC1=S	3%	3	-1.1%	5%	?	-8	7%
O=C(Cn1cnc2ccccc2c1=O)Nc1ccccc1N1CCOCC1	26%	5	nt	nt	-1.0	-11	-2%[15.4 µM]
COc1cccc(CNC(=O)Cc2ccc(OC)c(S(=O)(=O)N3CCOCC3)c2)c1	nt	18	-4.9%	2%	nt	8	-68%[inhibitor]
Cc1ccc(NC(=O)c2cc(C)n(-c3cccc(C)c3)c2C)cc1	1%	-3	-4.2%	-27%	3.9	-23	23%
CC1=CC2=NC(=O)C(c3ccccc3)C(=O)N2C=C1 (stereo unspecified)	nt	nt	nt	7%	nt	-2	36%
O=C(CCCC1=NS(=O)(=O)c2ccccc2N1)Nc1ccccc1	8%	26	0.7%	2%	nt	-15	-8%
CC(=O)c1ccc(-n2c(-c3cc(-c4ccco4)[nH]n3)n[nH]c2=S)cc1	50µM*	-6	1.1%	-19%	0.5	-15	9%
Cc1cc(C(=O)CSC(C)c2nc3ccccc3c(=O)[nH]2)c(C)n1C (stereo unspecified)	-26%	-2	-0.6%	14%	-9.2	3	9%
O=C(NCc1cccnc1)c1cc(Sc2ccccc2Cl)nc2ccccc12	6%	-2	-0.7%	-15%	4.3	-3	-8%[15.4 µM]
O=C(O)COc1ccccc1/C=N/NC(=O)CSc1nnc(SCc2ccc(Cl)cc2)s1	2%	?	-5.4%	7%	2.5	-4	14%
COc1ccc(-c2nnn(CC(=O)N(C3CCCC3)C(C)C(=O)NC3CCCC3)n2)cc1OC (stereo unspecified)	8%	-7	-0.3%	-9%	-2.2	-2	-7%
C=CCOC(=O)C(=O)/C=C/c1csc2ccccc12	40µM*	-4	-1.1%	-2%	?	-16	nt
Cc1ccc(C2/C(=C(\O)c3c(C)nc4c(C)cccn34)C(=O)C(=O)N2CCN(C)C)o1 (stereo unspecified)	nt	nt	-0.8%	11%	nt	4	9%
Cc1nc2nc(SCc3ccccc3)nn2c(C)c1C	nt	-3	-8.6%	0%	nt	-5	0%
COc1ccc2nc(NC(=O)c3ccccc3-c3ccccc3C(=O)O)sc2c1	14%	-3	-1.0%	0%	1.6	-3	-8%
Cc1ccc(NC(=O)Nc2ccccc2)c(Br)c1	18%	17	-1.5%	8%	-0.5	-4	-16%[15.4 µM]
CSc1nccc(N2CCN(c3ccc(F)cc3)CC2)n1	13%	-2	nt	-6%	6.6	-7	-16%
CC(NC(=O)/C=C/c1ccccc1)c1ccccc1 (stereo unspecified)	0%	-20	-2.1%	5%	-0.5	-20	0%[15.4 µM]
O=C(Nc1nnc(COc2ccc(Br)cc2)s1)c1ccco1	-19%	?	nt	-7%	5.3	-8	-1%[15.4 µM]
O=C(CCC(=O)N1CCOCC1)Nc1ccc(Cl)c(Cl)c1	8%	1	0.8%	11%	-1.1	-25	-9%
CC(C)(C)c1cc(OS(C)(=O)=O)ccc1O	-22%	10	nt	-6%	-0.2	-3	4%[15.4 µM]
CC(C)c1ccc(O)c(NC(=S)NC(=O)c2ccc3c(c2)OCO3)c1	-22%	8	0.7%	-2%	nt	-17	27%
Cc1ccc(N(CC(=O)NC(C)C)C(=O)CCC(=O)Nc2nccs2)c(C)c1	6%	-3	-0.4%	0%	-0.8	1	?
O=C(CCCn1c(SCC(=O)NC2CCCCC2)nc2ccccc2c1=O)NCC1CCCO1 (stereo unspecified)	6%	4	1.6%	13%	-2.4	-13	2%
CCOC(=O)N1CCN(c2ccc3nnnn3n2)CC1	10%	-5	1.3%	3%	2.1	-9	1%
CCOc1ccc(CC2S/C(=N/c3ccccn3)NC2=O)cc1 (stereo unspecified)	15%	5	-1.5%	-2%	3.8	-6	-31%[inhibitor]
O=C(NCC(=O)N1CCN(S(=O)(=O)c2ccccc2C(F)(F)F)CC1)c1sc2ccccc2c1Cl	nt	-3	4.2%	13%	nt	-8	-6%
COc1ccc(OC)c(S(=O)(=O)N2CCN(CC(O)COc3ccc(C#N)cc3)CC2)c1 (stereo unspecified)	16%	4	nt	nt	-6.5	-6	-21%[15.4 µM]
S=C(Nc1cccnc1)NC1CCCCCCC1	3%	-13	-25%	15%	1.2	-9	-2%[15.4 µM]
CC(C)Oc1ccc(S(=O)(=O)N2CCCCC2)cc1NC(=O)C1=COCCO1	nt	-4	-2.8%	-11%	nt	-19	4%
Cc1cc(C)nc(NC(=S)Nc2ccccc2)n1	5%	-12	0.1%	5%	0.2	4	-11%[15.4 µM]
CN(CC(=O)OCC(=O)NCc1ccccc1)S(=O)(=O)c1ccc(Cl)cc1	4%	-7	-0.4%	-19%	0.1	1	-12%[15.4 µM]
Cc1ccc(S(=O)(=O)N2CCOCC2)cc1C(=O)N1CCc2ccccc21	nt	nt	nt	-5%	nt	-2	27%
Cn1c(=O)c2c(SCCN3CCOCC3)nc(C3CCCC3)nc2n(C)c1=O	5%	7	-0.3%	-4%	-3.1	6	-16%[15.4 µM]
COC(=O)COc1ccc(S(=O)(=O)NCCC2=CCCCC2)cc1	9%	5	-1.1%	-5%	-0.3	-16	-7%
Cc1c(Cc2ccccc2)sc(NC(=O)/C=C/c2cccc3ccccc23)c1C(N)=O	-16%	-9	1.8%	21%	1.0	-8	-3%[15.4 µM]
O=C(Nc1ccc(S(=O)(=O)N2CCCC2)cc1)c1ccc(CN2CCOCC2)cc1	13%	-26	1.0%	-20%	1.1	-3	16%[15.4 µM]
Cc1ccc(NC(=O)Nc2ccc3c(c2)nc(C)n3C)cc1C	14%	-21	nt	nt	-7.1	nt	nt
More records follow:
SMILES	Sfp PPTase inh	TRPV1 potentiator	ClpP mod	gsp antagonist	Menin-MLL FL inh	D2 potentiator	gsp agonist
Cc1ccc(C(=O)C[n+]2cc(Br)cc(Br)c2)cc1	8%	nt	nt	-6%	4.9	-2	?
COc1ccc(NC(=O)CNc2ccccc2N2CCCC2=O)cc1S(=O)(=O)N1CCOCC1	nt	6	-0.5%	20%	nt	-4	6%
CCC(Sc1nc2n[nH]c(C)c2c(=N)n1-c1cccc(Cl)c1)C(=O)NCCOC (stereo unspecified)	-5%	-13	-5.0%	-8%	-1.1	4	0%
CCSC1=C(C#N)C(c2cccs2)C(C(=O)OC)=C(C)N1 (stereo unspecified)	?	-18	-20%	5%	0.2	1	?
CC1CCCCN1C(=O)CCC(=O)Nc1nnc(C(F)(F)F)s1 (stereo unspecified)	7%	-4	-2.5%	-1%	nt	-7	6%
Cn1nc(C2CC2)cc1NC(=O)CC(CC(=O)O)c1ccccc1 (stereo unspecified)	8%	3	nt	7%	6.0	-4	?
CC(=O)NCCOc1nc(N2CCCCC2)nc(N2CCCCC2)n1	9%	-6	nt	1%	-2.4	2	-7%[15.4 µM]
CCCCn1c(SCC(=O)Nc2ccc3c(c2)OCCO3)nnc1C(CC)N(C)C (stereo unspecified)	nt	6	-2.5%	1%	nt	-1	?
COC(=O)C(Sc1nc(C)cc(C)c1C#N)c1ccccc1 (stereo unspecified)	-3%	-8	-0.8%	-21%	1.7	-3	-6%

From PubChem
